gsp antagonist = qHTS for Antagonists of gsp, the Etiologic Mutation Responsible for Fibrous Dysplasia/McCune-Albright Syndrome: qHTS; gsp-mutant cells, cAMP HTRF, 30 min; control for the full effect not named in the record; Potency, µM (titrated, usually from 76.9 µM), without a hit: top-dose activity change, negative = inhibition, actives largely listed as inhibitors; 340,000 compounds, 0.4% hits; AID 624288, 2012; active = falling curve of any shape with a large fitted effect; inconclusive = falling curve, mostly with a smaller effect; inactive = flat or rising curve; cell line not stated here;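 further: intracellular cAMP measured with PDE inhibitor Ro 20-1724 present during compound exposure; potency means the concentration at half of the fitted maximal effect; on the % scale 0 is the no-effect control and ±100 the full control effect; nearly all actives have a fitted effect of over 65% in size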
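Measurement of cellular cAMP by homogeneous time-resolved fluorescence following a 30 min compound exposure at 37C. The PDE inhibitor […] was present throughout; the assay buffer was DPBS with 0.05% BSA and 0.005% Tween 20.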
Menin MLL FP FL = qHTS Assay for Inhibitors Targeting the Menin-MLL Interaction in MLL Related Leukemias: Competition With Fluorescein Labeled MLL-derived Peptide. Fluorescence polarization, fluorescein-MLL peptide displacement from menin. FP activity change, % at 61.4 µM. 290,000 tested, under 10 active. AID 1766, 2009; inconclusive = falling polarisation curve, or a change in total fluorescence; inactive = total fluorescence flat and polarisation flat or rising; no compound was filed as active; the % refers to the polarisation; negative = inhibition;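 further: % of control where 0% means no effect; inhibitors lower the polarisation; unlabelled MLL peptide was the positive control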
D2 potentiator = Beta-Arrestin HTS for Positive Allosteric Modulators of the Human D2 Dopamine Receptor: Potentiators; D(2) dopamine receptor (Homo sapiens), P14416; DiscoveRx D2 beta-arrestin cells, luminescence, 90 min; 100% = 57 uM dopamine signal; potentiation, % (no concentration beside the values); 360,000 compounds, 0.23% hits; AID 624464, 2012; active = potentiation of 50% or more; inconclusive = 30% to 50%; inactive = 30% or less;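 further: compound concentration not given in the record; tested on top of an EC20 dose of dopamine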
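D2 cells co-treated with compound plus 50 nM dopamine (EC20) for 90 min at 37 deg C to detect potentiation. Beta-arrestin recruitment was read as enzyme-fragment luminescence after 1 h at ambient temperature. Full response was set by 57 uM dopamine.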
gsp ag = qHTS for Agonist of gsp, the Etiologic Mutation Responsible for Fibrous Dysplasia/McCune-Albright Syndrome: qHTS | Potency, µM (series often up to 76.9 µM), for the others: at the top dose activation (cAMP increase), usual class: activators | gsp mutant cells, cAMP HTRF, 30 min; control for the full effect not named in the record | 340,000 compounds, 0.13% hits; active = well fitted activation curve with a large enough effect; inconclusive = small, poorly fitted or top-dose-only effect, or another doubt; inactive = no such curve, though single readings can be large or run the other way; cell line not stated here;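 further: phosphodiesterase inhibitor Ro 20-1724 added with compounds to block cAMP breakdown; potency means the concentration at half of the fitted maximal effect; nearly all actives have a fitted effect of over 60% in size; about a fifth of the inactives were tested at one dose only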
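Cells stably selected in G418 were plated at 2000/well, grown 16-24 hr, then given compounds in DMSO with the PDE inhibitor […] (300 uM solution added) for 30 min at 37C; cAMP was read by HTRF.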
ClpP mod = qHTS Assay for Activators of ClpP. Potency, µM (doses to about 57.5 µM), for inactives: top-dose activity change, negative = active. purified B. subtilis ClpP, FRET peptide cleavage, 20 min. 340,000 compounds, 1.9% hits. ATP-dependent Clp protease proteolytic subunit (Bacillus subtilis (strain 168)), P80244; active = well fitted falling curve with a large enough effect; inconclusive = small, poorly fitted or top-dose-only effect; inactive = no such curve, though single readings can be large or run the other way; further: potency means the concentration at half of the fitted maximal effect; the source files actives as falling curves though it sought activators and does not explain the sign; nearly all actives have a fitted effect of over 65% in size; many hits overshoot -100%
Target sequence (P80244 whole entry, looked up): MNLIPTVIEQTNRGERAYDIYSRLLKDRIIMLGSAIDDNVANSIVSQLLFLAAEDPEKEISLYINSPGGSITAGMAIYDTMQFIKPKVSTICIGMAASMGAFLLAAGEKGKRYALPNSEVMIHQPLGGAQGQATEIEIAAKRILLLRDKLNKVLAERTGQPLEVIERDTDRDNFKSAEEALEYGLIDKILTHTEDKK
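FRET quenching reversal measured ClpP activation: 10 microg/mL B. subtilis ClpP at pH 8 with the FRET-FV decapeptide, read at 430 nm after 320 nm excitation. The 20-min minus 0-min signal was scaled between DMSO/no-enzyme wells and ADEP (5.8 microM final).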
Sfp PPTase inh = qHTS Assay for Inhibitors of Bacillus subtilis Sfp phosphopantetheinyl transferase (PPTase). Potency, µM, without a hit: max response, negative = inhibition, hits mostly inhibitors. 4'-phosphopantetheinyl transferase ffp (Bacillus subtilis), Q9F4F7. 310,000 compounds, 3.5% hits. Biochemical Sfp PPTase activity, qHTS; active means well fitted inhibition curve with a large enough effect; inconclusive means small, poorly fitted or top-dose-only effect, or another doubt; inactive means no such curve, though single readings can be large or run the other way;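 further: the enzyme is Sfp with the accession as filed and its product quenches rhodamine fluorescence; potency means the concentration at half of the fitted maximal effect; 0% = enzyme reaction without inhibitor and -100% = no enzyme wells; top concentration of the series not given in the record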
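Compounds were incubated with enzyme (final 15 nM) for 15 min at room temperature before substrate addition started the reaction. Fluorescence at 525 nm excitation, 598 nm emission was recorded immediately and after 30 minutes.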
TRPV1 PAM = HTS Assay for Compounds that Act as Potentiators of the Vanilloid Receptor 1. Transient receptor potential cation channel subfamily V member 1 (Homo sapiens), Q8NER1. TRPV1-expressing cells, Fluo-8 calcium influx, capsaicin EC20 potentiation; host cell line not named in the record; control for the full effect not named in the record. 320,000 compounds, 0.02% hits. potentiation, % at 8.33 µM; active means potentiation above 80%; inconclusive means 30% to 80%; inactive means below 30%; further: 0% is about no effect
Target sequence (Q8NER1 whole entry, looked up): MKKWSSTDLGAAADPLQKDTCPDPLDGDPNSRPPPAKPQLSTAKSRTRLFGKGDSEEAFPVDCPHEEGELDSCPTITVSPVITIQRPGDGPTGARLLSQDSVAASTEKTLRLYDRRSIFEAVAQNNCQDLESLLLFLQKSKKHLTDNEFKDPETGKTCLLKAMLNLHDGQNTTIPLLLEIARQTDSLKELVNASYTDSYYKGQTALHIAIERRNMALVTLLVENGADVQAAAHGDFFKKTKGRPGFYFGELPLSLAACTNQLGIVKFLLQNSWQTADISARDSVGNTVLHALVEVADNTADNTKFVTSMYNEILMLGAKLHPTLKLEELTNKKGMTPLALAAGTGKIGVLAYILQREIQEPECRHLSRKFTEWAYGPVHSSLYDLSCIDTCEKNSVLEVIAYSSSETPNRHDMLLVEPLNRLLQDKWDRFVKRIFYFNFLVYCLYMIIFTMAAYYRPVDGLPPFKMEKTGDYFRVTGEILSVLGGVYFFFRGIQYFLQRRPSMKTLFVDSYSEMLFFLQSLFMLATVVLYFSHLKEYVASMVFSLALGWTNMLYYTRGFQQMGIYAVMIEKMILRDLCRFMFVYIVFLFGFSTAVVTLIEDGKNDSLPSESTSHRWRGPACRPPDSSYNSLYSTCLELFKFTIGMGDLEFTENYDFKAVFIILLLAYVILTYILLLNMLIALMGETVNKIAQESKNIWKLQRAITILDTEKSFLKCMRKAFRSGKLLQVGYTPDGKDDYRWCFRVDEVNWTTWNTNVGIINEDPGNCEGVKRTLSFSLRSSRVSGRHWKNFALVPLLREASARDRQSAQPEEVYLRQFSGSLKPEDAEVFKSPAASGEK
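Cells expressing TRPV1 were dye-loaded with Fluo-8 and read kinetically: 10 s baseline, 3 min after compound (agonist portion), then 2 min after EC20 capsaicin (allosteric enhancer portion). Calcium-bound dye fluorescence at 480/520 nm.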
The depositor's hits bear a star; u = inconclusive; x = not tested or not shown; [ ] = dose if it differs, or a comment.

Sequence of screens: Menin MLL FP FL, ClpP mod, Sfp PPTase inh, gsp antagonist, D2 potentiator, TRPV1 PAM, gsp ag
> CC1(C)C2CC=C(/C=N/NC(=S)Nc3cccnc3)C1C2 (stereo not given)
  -1.9, x, 19%, 9%, -3, 24, 25%
> COc1ccc(CNC(=O)C2CCN(S(=O)(=O)N3CCCCC3)CC2)c(OC)c1
  -1.8, -0.3%, 7%, 3%, 0, -7, -11%
> COc1ccc(-n2nc3c(c2NC(=O)c2cc4ccccc4o2)CS(=O)(=O)C3)cc1
  x, -0.8%, u, -10%, 10, 15, 18%[15.4 µM]
> Cc1ccccc1C(=O)N1CCN(c2ncnc3c2cnn3-c2ccccc2)CC1
  0.5, -13%, 7%, u, -7, 11, u
> CCC(=O)N(Cc1cc2ccccc2[nH]c1=O)c1ccc(OC)cc1
  -0.1, -1.1%, 1%, 8%, -6, -5, 3%[15.4 µM]
> Cc1nn(CCCC(=O)Nc2ccccn2)c(C)c1[N+](=O)[O-]
  1.2, x, 15%, 6%, -1, 0, -7%[15.4 µM]
> COC(=O)c1ccccc1NC(=S)NC(=O)COc1ccc(C)cc1
  x, -2.3%, x, 3%, -11, x, -8%
> COc1cc(C(=O)N/N=C/c2ccc(OC(=O)c3ccccc3Cl)cc2)ccc1O
  -0.3, -3.0%, -5%, -31%, 7, -2, -30%[inhibitor]
> Cc1ccc(S(=O)(=O)CCC(=O)OCc2cc(=O)oc3cc(C)ccc23)cc1
  x, -11%, x, -25%, -3, x, -3%
> O=C(Nc1cc(S(=O)(=O)N2CCCCCC2)ccc1OCC(F)(F)F)c1cnccn1
  x, 36%, x, 4%, -9, -1, -2%
> Cc1c(N=Nc2ccc(N(C)C)cc2)c(=O)n(-c2ccccc2)n1C
  u, 1.7%, -18%, -8%, -12, -10, 12%
> C[C@@H]1CCCCO[C@H](CN(C)S(=O)(=O)c2ccc(F)cc2)[C@@H](C)CN([C@H](C)CO)C(=O)c2cc(NC(=O)Nc3ccc(C(F)(F)F)cc3)ccc2O1
  x, -11%, x, x, 7, x, u
> CNC(=O)C1CCN(S(=O)(=O)c2c(C)noc2/C=C/c2ccc(OC)cc2)CC1
  -6.5, 12%, 13%, 4%, -3, -3, 7%
> O=C(NCC(O)COc1ccc([N+](=O)[O-])cc1)Nc1ccccc1 (stereo not given)
  7.0, x, 6%, 0%, -6, x, 3%[15.4 µM]
> O=C1CN(C(=O)COc2ccccc2)c2ccccc2N1
  x, -1.4%, 3%, 1%, 7, 0, 24%
> O=c1[nH][nH]c(C(F)(F)F)c1C=NCc1cccc(Cl)c1
  -0.7, 0.1%, 20%, -6%, -13, -11, -31%
> CN(Cc1ccccc1)C(=O)CN1C(=O)c2ccc([N+](=O)[O-])cc2C1=O
  -4.9, x, 5%, 7%, 18, -10, 0%
> CC(NC(=O)C(Cc1ccccc1)=NO)c1ccccc1 (stereo not given)
  x, 0.5%, x, 9%, -9, x, -8%
> COc1ccccc1CCC(=O)Nc1cc(S(=O)(=O)N2CCCCC2)ccc1N1CCN(C)CC1
  x, 1.8%, x, 4%, -11, 3, 6%[15.4 µM]
> Cn1cccc1-c1cc(C(=O)N/N=C/c2cccc(O)c2)[nH]n1
  -0.2, x, -18%, x, -28, 11, 10%[15.4 µM]
> Cc1nc2c(ncn2-c2ccccc2)c(=O)n1NC(=O)CN1CCCC1
  1.5, -0.6%, -5%, 1%, -10, 15, -7%
> Cc1c(C)c(C)c(S(=O)(=O)Nc2ccc3[nH]c(=O)[nH]c3c2)c(C)c1C
  -1.1, x, 8%, 1%, 4, 2, 25%[15.4 µM]
> N#CC1(NC(=O)COC(=O)Cc2c[nH]c3ccccc23)CCCCC1
  x, -3.2%, x, x, -15, x, -58%[inhibitor]
> CCC(C)c1ccc(NS(=O)(=O)c2c(C)[nH]c(=O)[nH]c2=O)cc1 (stereo not given)
  0.5, 2.1%, 8%, 0%, -3, u, -22%
> O=C(c1ccc2c(=O)n3c(nc2c1)CCCCC3)N1CCN(c2ccccc2)CC1
  2.9, x, 3%, -4%, -3, x, -22%[15.4 µM]
> O=C(/C=C/c1ccc(Cl)cc1)NC(=S)NN1CCCCC1c1cccnc1 (stereo not given)
  6.5, x, -6%, x, x, -8, x
> Cc1cc(NC(=O)CSc2nc(N)c(NC(=O)c3ccccc3)c(=O)[nH]2)no1
  1.5, x, -23%, 7%, -2, -10, -9%[15.4 µM]
> Cc1cc(-c2ccc(Cl)cc2)c2cnn(C(C)C)c2n1
  -4.0, 3.7%, -11%, -12%, -5, -17, u
> CCOC(=O)c1cc(OC(=O)c2ccccc2)n(-c2ccccc2)n1
  1.6, -9.7%, 14%, -14%, 2, 3, u
> O=C(/C=C/Nc1ccc(F)c(Cl)c1)c1ccccc1
  -1.2, -6.0%, -16%, -15%, -31, -2, -36%[inhibitor]
> CCC(C)(C)NC(=O)Cc1ccc(F)cc1
  -7.5, x, 0%, 5%, 1, -12, -1%[15.4 µM]
> CSc1cccc(NC(=O)N2CCc3ccc(NC(=O)c4ccccn4)cc3C2)c1
  x, -25%, 17%, -20%, -16, -18, -16%
> O=C(CSc1nc(-c2ccccc2)c(-c2ccccc2)o1)Nc1nnc(-c2ccccc2)s1
  -0.2, -19%, 3%, 0%, -10, 27, 5%
> COC(=O)CN1C(=O)COc2ccc(S(=O)(=O)N3CCOCC3)cc21
  x, -0.7%, 17%, 5%, 0, 3, 5%
> Cn1c(N2CCN(S(=O)(=O)c3ccc(F)cc3)CC2)nc2ccccc21
  -0.5, x, 16%, -5%, 6, -5, 27%[15.4 µM]
> O=C(Nc1ccc(N2CCN(C(=O)c3ccco3)CC2)cc1)c1ccc(F)cc1
  -2.2, -3.0%, 12%, -10%, -19, -25, -32%[inhibitor]
> COc1ccc(C(=O)N2CCCC(c3nc(-c4cccs4)no3)C2)cc1 (stereo not given)
  7.1, -0.2%, 12%, -8%, -8, -12, -21%
> CC(C)[C@H](NC(=O)c1ccco1)C(=O)OCC(=O)N(C)c1ccccc1
  0.1, 0.1%, 8%, 5%, -10, 21, 24%
> C/C(=N\NC(=O)c1cccc(C)c1)c1ccc(N2CCOCC2)cc1
  2.0, -1.5%, 6%, 9%, -16, 11, 1%
> O=S(=O)(c1ccc(F)cc1)N1CCC2(CC1)OCCO2
  0.1, x, 14%, -1%, 2, -2, 4%
> CSc1ccc(CN2CCC(Oc3ccc(C(=O)N4CCCC4)cc3)CC2)cc1
  -2.2, 2.2%, -1%, 1%, -32, 4, u
> c1ccc(CSc2nc3ccccc3[nH]2)cc1
  3.8, x, 6%, 9%, -1, 13, -10%[15.4 µM]
> COc1ccccc1CNc1ccc(Br)cn1
  -12, x, -3%, 7%, -5, 9, 7%
> CCOC(=O)C(C)Sc1ncc(OC)c(Sc2ccc(Cl)cc2)n1 (stereo not given)
  3.7, -1.5%, -6%, -21%, -14, x, 6%
> COc1ccc(C(=O)NC(=S)NCC2CCCO2)cc1 (stereo not given)
  0.3, -1.3%, 23%, 11%, -7, -2, 23%
> COc1ccccc1NC=C1C(=O)OC(C)(C)OC1=O
  13, -3.9%, 18%, 10%, -1, 6, -34%[inhibitor]
> O=C(Nc1ccc(F)cc1)C(Cc1ccccc1)n1cccc1 (stereo not given)
  6.0, x, 14%, -4%, -3, -1, -18%[15.4 µM]
> O=C(Nc1cccc(-c2csc(Nc3cccc(C(F)(F)F)c3)n2)c1)c1ccccc1
  0.9, -6.7%, 13%, -14%, -3, -4, x
> O=C(C1CCN(S(=O)(=O)c2cccs2)CC1)N1CCN(c2ccccc2)CC1
  0.4, -3.9%, -3%, 3%, 0, -10, -27%
> Cc1cccc(Cc2nnc(CCC(=O)N3CCCC(CN4CCOCC4)C3)o2)c1 (stereo not given)
  1.7, x, -1%, 9%, 6, 4, -5%
> Cc1cc(C)n(Cc2ccc(C(=O)Nc3cccc(Br)c3)o2)n1
  3.4, -3.8%, 6%, -12%, -12, -1, 0%
> COC(=O)c1c(NC(=O)c2cccs2)sc2c1CCCC2
  -0.8, 35µM*, 6%, -12%, 20, -10, 6%
> CC(Oc1ccc(Cl)cc1)C(=O)NNC(=S)NC(=O)c1ccco1 (stereo not given)
  2.5, -2.1%, -5%, -6%, -14, -6, 7%[15.4 µM]

Another view of 2 compounds above.
Structure	Menin MLL FP FL	ClpP mod	Sfp PPTase inh	gsp antagonist	D2 potentiator	TRPV1 PAM	gsp ag
CCOC(=O)C(C)Sc1ncc(OC)c(Sc2ccc(Cl)cc2)n1 (stereo not given)	3.7	-1.5%	-6%	-21%	-14	x	6%
COc1ccc(C(=O)NC(=S)NCC2CCCO2)cc1 (stereo not given)	0.3	-1.3%	23%	11%	-7	-2	23%

Single entries from the results shown:
O=C(/C=C/c1ccc(Cl)cc1)NC(=S)NN1CCCCC1c1cccnc1 (stereo not given) @ Menin MLL FP FL = 6.5
CSc1ccc(CN2CCC(Oc3ccc(C(=O)N4CCCC4)cc3)CC2)cc1 @ Sfp PPTase inh = -1%
COc1ccccc1NC=C1C(=O)OC(C)(C)OC1=O @ TRPV1 PAM = 6
COc1ccc(C(=O)NC(=S)NCC2CCCO2)cc1 (stereo not given) @ TRPV1 PAM = -2

Assay outcomes: PubChem BioAssay, National Center for Advancing Translational Sciences (NCATS)
